# D2 ag = human D2 receptor agonism in beta-arrestin assay | P14416 | DiscoveRx PathHunter D2 beta-arrestin, luminescence, 90 min; 100% = 57 uM dopamine signal | activation, % (concentration not given with the values) | actives 0.084% (n = 360,000); in the data active = activation above about 40%; inconclusive = about 15% to 40%; inactive = below about 15%; also: compound concentration not given in the record; the text of the record calls up to 30% inactive
# Target sequence (P14416 whole entry, looked up): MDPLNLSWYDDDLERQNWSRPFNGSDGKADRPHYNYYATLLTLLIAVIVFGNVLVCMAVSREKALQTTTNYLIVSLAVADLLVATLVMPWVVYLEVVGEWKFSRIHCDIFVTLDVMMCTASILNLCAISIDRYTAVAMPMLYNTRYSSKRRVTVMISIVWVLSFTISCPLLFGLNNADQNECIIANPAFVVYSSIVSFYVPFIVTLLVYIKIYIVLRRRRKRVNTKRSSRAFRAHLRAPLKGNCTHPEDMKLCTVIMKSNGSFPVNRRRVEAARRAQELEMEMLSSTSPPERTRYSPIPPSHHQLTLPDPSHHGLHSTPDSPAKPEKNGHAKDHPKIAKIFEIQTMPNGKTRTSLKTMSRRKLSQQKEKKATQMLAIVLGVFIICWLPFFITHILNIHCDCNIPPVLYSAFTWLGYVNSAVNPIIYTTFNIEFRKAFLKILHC
#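 DiscoveRx PathHunter D2 beta-arrestin cells (2,100/well) attached overnight, then compound-stimulated 90 min at 37 C in HBSS/10 mM HEPES/0.1% Tween-20 buffer; beta-galactosidase complementation read by luminescence after 1 h at ambient temperature. Dopamine 57 uM final (EC100) as control.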
# Six1-Eya2 blk = inhibitors of human Six1/Eya2 interaction. Q15475+O00167. AlphaScreen GST-Six1/His-Eya2 binding, biochemical; active compounds read low; control for the full effect not named in the record. activity change, % (no concentration beside the values). actives 0.56% (n = 360,000). AID 651725; in the data active = activity change below about -65%; inconclusive = about -30% to -65%; inactive = above about -30%; also: % is scaled to controls: 0 for no effect and ±100 for the full control effect
#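 AlphaScreen luminescence read after one hour at 37 °C in darkness. Pin-transferred compounds met GST-Six1 and His-Eya2 protein (5X stock 250 nM/500 nM) plus glutathione donor and Ni-chelate acceptor beads (5X, 50 ug/mL).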
# D2 potentiator = positive allosteric modulators of human D2 dopamine receptor. P14416. DiscoveRx D2 beta-arrestin cells, luminescence, 90 min; 100% = 57 uM dopamine signal. potentiation, % (no concentration beside the values). actives 0.23% (n = 360,000). AID 624464; active = potentiation of 50% or more; inconclusive = 30% to 50%; inactive = 30% or less;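 also: compound concentration not given in the record; tested on top of an EC20 dose of dopamine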
#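 D2 cells co-treated with compound plus 50 nM dopamine (EC20) for 90 min at 37 deg C to detect potentiation. Beta-arrestin recruitment was read as enzyme-fragment luminescence after 1 h at ambient temperature. Full response was set by 57 uM dopamine.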
# gsp antag = gsp mutant antagonism; gsp-mutant cells, cAMP HTRF, 30 min; control for the full effect not named in the record; Potency, µM (top dose mostly 76.9 µM), inactives show at the highest dose activity change, negative = inhibition, hits mostly inhibitors; actives 0.4% (n = 340,000); active = falling curve of any shape with a large fitted effect; inconclusive = falling curve, mostly with a smaller effect; inactive = flat or rising curve; cell line not stated here;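 also: intracellular cAMP measured with PDE inhibitor Ro 20-1724 present during compound exposure; potency is read from the fitted curve at half-maximal effect; % is scaled to controls: 0 for no effect and ±100 for the full control effect; nearly all actives have a fitted effect of over 65% in size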
#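 Cells, 2000/well, grown 16–24 h in DMEM 10% FBS with 0.5 mg/ml G418, then compounds plus […] (300 uM addition stock), 30 min at 37C. cAMP read by HTRF (cAMP-d2 and anti-cAMP antibody-K in lysis buffer) after 30 min RT.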
# CtBP-E1A inh = blocks the CtBP interaction with E1A; AlphaScreen GST-E1A/His-CtBP binding, 1536-well; active compounds read low; control for the full effect not named in the record; activity change, % (no concentration beside the values); actives 0.49% (n = 340,000); in the data active means activity change below about -65%; inconclusive means about -30% to -65%; inactive means above about -30%; also: % is scaled to controls: 0 for no effect and ±100 for the full control effect
#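 Homogeneous bead-based format: GST-tagged E1A captured on glutathione donor beads, His-tagged CtBP on nickel acceptor beads; compounds precede bead addition by 2 h at 37 °C.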
# gsp ag = gsp mutant agonism | gsp mutant cells, cAMP HTRF, 30 min; control for the full effect not named in the record | Potency, µM (top dose mostly 76.9 µM), for inactives: at the highest dose activation (cAMP increase), usual class: activators | AID 624287 | actives 0.13% (n = 340,000); active = well fitted activation curve with a large enough effect; inconclusive = small, poorly fitted or top-dose-only effect, or another doubt; inactive = no such curve, though single readings can be large or run the other way; cell line not stated here;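 also: phosphodiesterase inhibitor Ro 20-1724 added with compounds to block cAMP breakdown; potency is read from the fitted curve at half-maximal effect; nearly all actives have a fitted effect of over 60% in size; about a fifth of the inactives were tested at one dose only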
#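 Cells stably selected in G418 were plated at 2000/well, grown 16-24 hr, then given compounds in DMSO with the PDE inhibitor […] (300 uM solution added) for 30 min at 37C; cAMP was read by HTRF.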
# An asterisk follows results filed as active; ? = inconclusive; / = no result given; [ ] = remark or other dose.
cpd | D2 ag | Six1-Eya2 blk | D2 potentiator | gsp antag | molecule | CtBP-E1A inh | gsp ag
1 | -3.3 | 1 | -7 | -14% | O=c1nc(N2CCCCCC2)nc(N2CCCCCC2)[nH]1 | -7 | -1%
2 | -3.7 | 4 | -27 | 1% | Cc1cc(C)cc(C(=O)NC(CC(N)=O)c2ccc(N3CCN(c4ccccc4)CC3)c([N+](=O)[O-])c2)c1 (stereo not drawn) | -21 | 12%
3 | -2.8 | 6 | -7 | -16% | O=C(N1CCCCCC1)n1c(Cc2ccccc2)nc2ccccc21 | -5 | -19%
4 | 1.2 | 24 | 1 | -10% | COc1ccc(C(=O)OCC(=O)c2ccc(C3CCCCC3)cc2)cc1 | 13 | 15%
5 | -2.1 | -5 | -2 | -9% | Cc1ccc2cc(C(c3nnnn3C3CCCC3)N3CCN(c4ccccc4)CC3)c(=O)[nH]c2c1 (stereo not drawn) | -3 | -2%
6 | -5.2 | -1 | -4 | 2% | Cc1csc(SC(C)C(=O)Nc2ccccc2C)n1 (stereo not drawn) | 15 | 7%
7 | -6.2 | -1 | -7 | 3% | Cc1nc2ccc(NC(=O)N3CCSCC3)cc2s1 | 8 | 12%
8 | -5.4 | -9 | 6 | 13% | Cc1cc(C)n(-c2nc(NCCCO)c3c4c(sc3n2)CCCC4)n1 | -11 | 3%
9 | -0.7 | 1 | -2 | 7% | CN1C(=S)SC(N(O)C=C2C=CC(=O)C=C2)C1(C)C (stereo not drawn) | 1 | -16%
10 | -2.1 | 1 | 7 | 4% | CC(C)C(c1nnnn1C1CCCCC1)N1CCN(c2ncccn2)CC1 (stereo not drawn) | -2 | 12%
11 | -18 | 10 | 10 | -22% | O=C(O/N=C(\c1ccccc1)c1ccncc1)c1ccccc1Cl | 5 | -16%
12 | -3.7 | -11 | -11 | ? | CCN1CCN(c2ccc(S(=O)(=O)N3CCCCC3)cc2NC(=O)c2ccc(C)c(C)c2)CC1 | / | 9%
13 | -1.0 | -4 | 2 | 12% | Cc1ccccc1NC(=O)C1c2ccccc2Oc2ccccc21 | 4 | -57%[inhibitor]
14 | -16 | -9 | -24 | -5% | O=C(NNc1ccc(O)cc1)c1ccc(Br)cc1 | / | -1%
15 | -1.3 | 16 | -2 | 2% | O=C1CCCc2ccccc2N1Cc1ccccc1Cl | 11 | 24%
16 | -1.9 | -4 | -3 | -5% | CN(C)S(=O)(=O)c1ccc(NC(=O)c2ccncc2)cc1 | 7 | 6%
17 | 5.9 | -3 | -6 | -20% | CCc1ccc(NS(=O)(=O)c2cccc3nonc23)cc1 | / | 10%[15.4 µM]
18 | -2.1 | -13 | -11 | -26% | O=C(c1cccs1)c1c[nH]cc1-c1ccccc1 | -14 | 7%[15.4 µM]
19 | -3.0 | -5 | -12 | 4% | COC(=O)c1ccc(NC(=O)COc2ccccc2OC)cc1 | 0 | 22%
20 | -3.0 | 1 | -3 | 10% | Cc1ccc(-n2nc3c(c2NC(=O)C(C)C)CS(=O)(=O)C3)cc1 | / | 19%

# Fetched by compound from above (2):
cpd | D2 ag | Six1-Eya2 blk | D2 potentiator | gsp antag | molecule | CtBP-E1A inh | gsp ag
2 | -3.7 | 4 | -27 | 1% | Cc1cc(C)cc(C(=O)NC(CC(N)=O)c2ccc(N3CCN(c4ccccc4)CC3)c([N+](=O)[O-])c2)c1 (stereo not drawn) | -21 | 12%
9 | -0.7 | 1 | -2 | 7% | CN1C(=S)SC(N(O)C=C2C=CC(=O)C=C2)C1(C)C (stereo not drawn) | 1 | -16%

# Carrying on.
cpd | D2 ag | Six1-Eya2 blk | D2 potentiator | gsp antag | molecule | CtBP-E1A inh | gsp ag
21 | 3.7 | -1 | -16 | 14% | CCN(CC)CCNC(=O)c1ccc(NC(=O)C2CC(=O)N(c3ccc4c(c3)OCCO4)C2)cc1 (stereo not drawn) | 0 | -31%[15.4 µM]
22 | 3.5 | -1 | -13 | 10% | CCOC(=O)c1c(C)[nH]c(C)c1S(=O)(=O)NC1CCN(C(=O)OCC)CC1 | 1 | -1%
23 | -1.1 | 3 | -10 | 6% | O=C(CSc1nnc(-c2cccs2)o1)OCc1ccccc1 | 10 | ?
24 | -3.8 | 17 | -1 | 7% | O=C(CCC1CCCCC1)NCc1ccccn1 | 0 | 6%
25 | -3.1 | -7 | 9 | -15% | COc1cccc(C(=O)Nc2ccc3nc(N4CCOCC4)cc(C)c3c2)c1 | -10 | -5%
26 | 0.6 | 6 | -3 | -4% | C/C(=N\OCc1ccc(C#N)cc1)c1ccccc1 | 6 | -39%[inhibitor]
27 | -3.6 | 10 | -11 | 10% | CCOC(=O)Cc1c(C)nc2c(-c3ccc(OC)cc3)c(C)nn2c1C | 5 | 12%
28 | -0.9 | 18 | 25 | 11% | CC(C)NC(=O)c1ccccc1N(Cc1ccccc1)S(C)(=O)=O | 33 | 0%
29 | 2.0 | 0 | 4 | 14% | CS(=O)(=O)c1ccc2sc(NC(=O)c3cc4ccccc4o3)nc2c1 | 8 | 11%[15.4 µM]
30 | -2.4 | 6 | 9 | 3% | CN(Cc1ccccc1)Cc1nc2c(c(=O)n(C)c(=O)n2C)n1Cc1ccc(F)cc1 | 3 | 0%
31 | 2.9 | -1 | -3 | 2% | Cc1ccc(-c2nnnn2C2C/C(=N\NC(N)=S)C3OCC2O3)cc1 (stereo not drawn) | 1 | 5%
32 | 5.8 | -7 | -5 | ? | CCn1ncc(/C=N/N=C2\CCC3C4CCc5cc(O)ccc5C4CCC23C)c1C (stereo not drawn) | -4 | -8%
33 | -12 | -22 | -13 | -17% | O=C(N/N=C/c1cccc([N+](=O)[O-])c1O)C(O)(c1ccccc1)c1ccccc1 | / | 4%
34 | 1.4 | 0 | 15 | -27% | CCN(Cc1ccccc1)C(=O)Cn1c(=O)n(CCC(=O)N2CCCCC2)c(=O)c2sccc21 | 1 | -32%
35 | 0.3 | 3 | -5 | -16% | O=C(O)c1ccc(NC(=O)c2ccc(COc3ccccc3)o2)cc1 | 8 | 13%
36 | -0.2 | -1 | -10 | -8% | COc1ccc(S(=O)(=O)NC2CCSc3ccccc32)cc1OC (stereo not drawn) | 0 | 0%
37 | -2.4 | 1 | -4 | -5% | O=C(CCl)N(c1ccccc1)C1CCS(=O)(=O)C1 (stereo not drawn) | 1 | -12%
38 | -1.1 | -8 | -35 | 9% | COc1cc(C2C(C#N)=C(N)Oc3c2ccc2ccccc32)ccc1OCC(=O)Nc1ccc(C)cc1 (stereo not drawn) | -4 | -2%
39 | -2.9 | -1 | -7 | 4% | O=C(c1cc(-c2ccco2)on1)N1CCOCC1 | -15 | ?
40 | -1.0 | 16 | -8 | -7% | COc1cccc(C=Nc2cc(C)on2)c1O | 1 | 3%

# 6 of the compounds above, with two lines to a compound:
# Every second line gives: D2 ag, Six1-Eya2 blk, D2 potentiator, gsp antag, CtBP-E1A inh, gsp ag
21: CCN(CC)CCNC(=O)c1ccc(NC(=O)C2CC(=O)N(c3ccc4c(c3)OCCO4)C2)cc1 (stereo not drawn)
→ 3.7, -1, -16, 14%, 0, -31%[15.4 µM]
22: CCOC(=O)c1c(C)[nH]c(C)c1S(=O)(=O)NC1CCN(C(=O)OCC)CC1
→ 3.5, -1, -13, 10%, 1, -1%
23: O=C(CSc1nnc(-c2cccs2)o1)OCc1ccccc1
→ -1.1, 3, -10, 6%, 10, ?
24: O=C(CCC1CCCCC1)NCc1ccccn1
→ -3.8, 17, -1, 7%, 0, 6%
25: COc1cccc(C(=O)Nc2ccc3nc(N4CCOCC4)cc(C)c3c2)c1
→ -3.1, -7, 9, -15%, -10, -5%
26: C/C(=N\OCc1ccc(C#N)cc1)c1ccccc1
→ 0.6, 6, -3, -4%, 6, -39%[inhibitor]

# (listing goes on)
cpd | D2 ag | Six1-Eya2 blk | D2 potentiator | gsp antag | molecule | CtBP-E1A inh | gsp ag
41 | -3.6 | -1 | -17 | -14% | CC(C)(C)c1ccc(C(=O)NCC(=O)OCc2ccc([N+](=O)[O-])cc2)cc1 | -6 | -5%
42 | -4.9 | 1 | -27 | -5% | Cc1ccc(CN2CCC(CNC(=O)Nc3ccccc3F)CC2)cc1 | -2 | 15%
43 | -3.6 | 13 | -9 | -2% | CC(C)NC(=O)CN1CCN(C(=O)CCl)CC1 | 2 | 11%[15.4 µM]
44 | 4.3 | -8 | -1 | ? | CCOc1ccc(S(=O)(=O)Nc2nc3ccccc3nc2Nc2ccc(N3CCOCC3)cc2)cc1 | -18 | -37%[inhibitor]
45 | -2.3 | -6 | -21 | -6% | CCOC(=O)Cc1c(C)nc2c(-c3ccccc3)c[nH]n2c1=O | -1 | 9%
46 | 3.6 | 2 | 2 | / | C=CCNc1ncnc2c1ncn2[C@H]1CN(Cc2ccc(F)cc2)C[C@@H](CO)O1 | 2 | /
47 | -6.0 | 5 | -4 | 3% | COc1ccc(OC)c(NC(=O)CN(Cc2ccccc2)S(C)(=O)=O)c1 | 9 | 4%
48 | -4.5 | 39 | -5 | 4% | CCOCCOC(=O)C(C)Oc1ccc(Oc2nc(Cl)ccc2Cl)cc1 (stereo not drawn) | 55 | 1%
49 | 0.2 | 3 | 1 | 9% | CC(C)OCCCNC(=O)NC(=O)c1ccc(Cl)cc1 | 0 | -6%[15.4 µM]
50 | -1.3 | -17 | -14 | 4% | COc1ccc(N2CCN(CCNS(=O)(=O)c3ccc(C)cc3)CC2)cc1 | -22 | -20%
51 | -0.8 | 1 | -5 | -25% | COC(=O)c1cc(NC(=O)C2COc3ccccc3O2)ccc1Cl (stereo not drawn) | 9 | ?
52 | -0.7 | -3 | -32 | 17% | Cc1ccc(OCCCN2CCCC2)c(C)c1 | 0 | 21%
53 | 0.2 | 13 | -6 | 1% | COC(=O)Nc1nnc(-c2ccccc2Cl)s1 | 13 | 27%
54 | -0.3 | -6 | 2 | -7% | CC(C)(C)C(=O)Nc1ccc(-c2nc3ccccc3c(=O)o2)cc1 | -17 | -49%[inhibitor]
55 | -0.8 | -19 | -1 | ? | CC1CCc2c(sc(NC(=O)c3cccn3C)c2C(N)=O)C1 (stereo not drawn) | -18 | 0%
56 | -0.9 | -9 | -14 | -5% | O=C(CN1CCN(c2ccc(Cl)cc2)CC1)Nc1ccc(F)cc1 | -4 | 28%
57 | -3.0 | -2 | -8 | -11% | COc1ccc(-c2cc(C(=O)N3CC(C)CC(C)C3)c3ccccc3n2)cc1OC (stereo not drawn) | 7 | -32%[inhibitor]
58 | -1.8 | -2 | 12 | 8% | OCCNC1=NCCN1 | 8 | -9%
59 | 0.3 | -2 | -9 | -9% | Nc1nc2c(Cl)cc(Cl)cc2s1 | 2 | 22%
60 | -12 | -8 | -49 | -1% | CCOC(=O)c1c(N)sc(N)c1C(=O)OCC | -5 | 8%
